Source: PubChem BioAssay (National Center for Advancing Translational Sciences (NCATS))
TRPML1 ag = activates the human TRPML1 channel; hit rate 0.12% among 410,000; activation, % (concentration not given with the values); Q9GZU1; TRPML1-expressing cells, Ca2+ dye fluorescence, FDSS; host cell line not named in the record; reference of the full effect not given here; AID 624414; in the data active = activation above about 50%; inconclusive = about 30% to 50%; inactive = below about 30%; further: 0% is about no effect; the text of the record puts the active cut at 80%
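TRPML1-DL cells, Tet-induced overnight (~16 h, 37 degrees C), loaded 45-90 min at room temperature with Ca8 no-wash calcium dye plus quencher. FDSS fluorescence: 10 s baseline, compound pin-transfer, 110 s agonist read, then EC80 54-4 (4uM final) and 110 s antagonist read.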
TRPML1 inh = blocks the human TRPML1 channel; TRPML1-inducible cells, Ca2+ dye fluorescence, FDSS; hits give low values; inhibition of EC80 agonist-evoked calcium signal; activity change, negative = inhibition, % (no concentration beside the values); hit rate 0.02% among 390,000; AID 624415; in the data active means activity change below about -50%; inconclusive means about -30% to -50%; inactive means above about -30%;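 further: stimulus is agonist 54-4 at its EC80 concentration; on the % scale 0 is the no-effect control and ±100 the full control effect; compound concentration not given in the record; the text of the record puts the active cut at -80%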
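Calcium fluorescence in TRPML1-DL cells induced overnight with Tet: a 110 s read after compound pin addition, then a 110 s antagonist read after challenge with 54-4 at 4 uM final (EC80).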
D2 PAM = positive allosteric modulators of human D2 dopamine receptor; P14416; DiscoveRx D2 beta-arrestin cells, luminescence, 90 min; 100% = 57 uM dopamine signal; potentiation, % (no concentration beside the values); hit rate 0.23% among 360,000; AID 624464; active = potentiation of 50% or more; inconclusive = 30% to 50%; inactive = 30% or less;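 further: compound concentration not given in the record; tested on top of an EC20 dose of dopamine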
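D2 cells co-treated with compound plus 50 nM dopamine (EC20) for 90 min at 37 deg C to detect potentiation. Beta-arrestin recruitment was read as enzyme-fragment luminescence after 1 h at ambient temperature. Full response was set by 57 uM dopamine.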
Six1-Eya2 inh = Six1/Eya2 interaction inhibition | Q15475+O00167 | AlphaScreen GST-Six1/His-Eya2 binding, biochemical; hits give low values; control for the full effect not named in the record | activity change, % (concentration not given with the values) | hit rate 0.56% among 360,000 | AID 651725; in the data active = activity change below about -65%; inconclusive = about -30% to -65%; inactive = above about -30%; further: on the % scale 0 is the no-effect control and ±100 the full control effect
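Compounds are tested against tagged Six1 and Eya2 proteins bridged by glutathione donor and nickel acceptor beads; after a one-hour incubation at 37 °C without light, AlphaScreen emission is recorded.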
TRPV1 potentiator = enhances activation of the human vanilloid receptor TRPV1 | AID 540277 | potentiation, % at 8.33 µM | hit rate 0.02% among 320,000 | TRPV1-expressing cells, Fluo-8 calcium influx, capsaicin EC20 potentiation; host cell line not named in the record; control for the full effect not named in the record | Q8NER1; active means potentiation above 80%; inconclusive means 30% to 80%; inactive means below 30%; further: 0% is about no effect
Target sequence (Q8NER1 whole entry, looked up): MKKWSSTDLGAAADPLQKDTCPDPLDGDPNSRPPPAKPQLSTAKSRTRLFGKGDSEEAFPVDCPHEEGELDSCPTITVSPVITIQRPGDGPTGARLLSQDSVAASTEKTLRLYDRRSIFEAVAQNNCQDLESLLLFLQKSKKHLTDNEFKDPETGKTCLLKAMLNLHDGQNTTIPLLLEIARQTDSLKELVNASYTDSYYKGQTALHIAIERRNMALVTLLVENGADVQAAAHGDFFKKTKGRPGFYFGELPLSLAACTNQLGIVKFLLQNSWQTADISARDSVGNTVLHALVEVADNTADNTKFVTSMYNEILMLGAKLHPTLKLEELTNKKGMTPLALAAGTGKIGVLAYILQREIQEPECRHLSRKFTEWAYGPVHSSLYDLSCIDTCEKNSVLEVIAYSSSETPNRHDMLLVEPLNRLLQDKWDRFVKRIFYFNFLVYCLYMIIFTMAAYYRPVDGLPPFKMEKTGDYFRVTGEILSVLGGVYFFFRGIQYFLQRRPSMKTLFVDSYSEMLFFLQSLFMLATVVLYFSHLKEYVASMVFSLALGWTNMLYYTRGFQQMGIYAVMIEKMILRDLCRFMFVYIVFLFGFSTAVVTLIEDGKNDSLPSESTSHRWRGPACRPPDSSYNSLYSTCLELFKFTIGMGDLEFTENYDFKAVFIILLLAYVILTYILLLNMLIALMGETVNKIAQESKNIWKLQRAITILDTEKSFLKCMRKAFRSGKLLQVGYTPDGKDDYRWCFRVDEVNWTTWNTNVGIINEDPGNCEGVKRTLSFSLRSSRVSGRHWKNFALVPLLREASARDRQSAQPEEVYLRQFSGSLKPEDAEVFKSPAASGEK
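Cells expressing TRPV1 were dye-loaded with Fluo-8 and read kinetically: 10 s baseline, 3 min after compound (agonist portion), then 2 min after EC20 capsaicin (allosteric enhancer portion). Calcium-bound dye fluorescence at 480/520 nm.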
CtBP-E1A blk = inhibitors of CtBP/E1A interaction; AID 651724; hit rate 0.49% among 340,000; AlphaScreen GST-E1A/His-CtBP binding, 1536-well; hits give low values; control for the full effect not named in the record; activity change, % (concentration not given with the values); in the data active means activity change below about -65%; inconclusive means about -30% to -65%; inactive means above about -30%; further: on the % scale 0 is the no-effect control and ±100 the full control effect
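AlphaScreen with 125 nM GST-E1A and 125 nM His-CtBP (5X stocks) in Tris pH 8.0, 300 mM NaCl, BSA, Tween 20, TCEP. Compounds preincubated 2 h at 37 deg C, then glutathione donor/nickel acceptor beads added for 1 h at 37 deg C in dark.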
Starred values were filed as active, the others as inactive; ? = inconclusive; / = not tested or not shown.

1) NC(=O)COc1ccc(/C=N/NC(=O)C2CCCN2S(=O)(=O)c2ccc(Cl)cc2)cc1 (configuration not stated)
2) CCN(CC)CCC(=O)N1c2ccccc2Sc2ccc(NC(=O)OC)cc21
3) Cc1ccc(CN=c2c([N+](=O)[O-])nn(-c3ccc4c(c3)OCCO4)n2O)cc1
4) Cc1c(NC(=O)c2ccc(N(C)S(C)(=O)=O)cc2)c(=O)n(-c2ccccc2)n1C
5) CN(c1ccc(O)cc1)c1nc(-c2cccnc2)cs1
6) Cc1ccc2c(CC(=O)NCC(=O)Nc3c(C)cccc3C)coc2c1

Screen / compound no. | 1 | 2 | 3 | 4 | 5 | 6
TRPML1 ag | -0.8 | 0.5 | 0.2 | -1.0 | -0.3 | 0.0
TRPML1 inh | -17 | 0 | 7 | -1 | -3 | 22
D2 PAM | ? | -2 | 135* | -2 | -5 | 6
Six1-Eya2 inh | -1 | 0 | ? | -1 | -12 | 2
TRPV1 potentiator | 15 | -5 | 9 | 0 | 3 | 16
CtBP-E1A blk | 0 | 9 | -25 | 11 | -18 | -18

7) CCCC(CCC(=O)OC)(C(=O)OCC)c1csc(N)n1 (configuration not stated)
8) COc1ccccc1NC(=S)NCc1ccccc1
9) CCCn1cc(SCC(=O)NCc2ccc3c(c2)OCO3)c2ccccc21
10) Cc1no[n+]([O-])c1COc1ccc(/C=C2\NC(=S)NC2=O)cc1
11) Cc1ccc(N2CC(C(=O)Nc3nnc(C)s3)CC2=O)cc1 (configuration not stated)
12) Cc1ccccc1OCCC(=O)N1CCN(S(=O)(=O)c2ccc(Cl)cc2)CC1

Screen / compound no. | 7 | 8 | 9 | 10 | 11 | 12
TRPML1 ag | -0.3 | 0.3 | 3.0 | 1.9 | 0.6 | 0.3
TRPML1 inh | -13 | 39 | 3 | 51 | 2 | -12
D2 PAM | -11 | -4 | -6 | -14 | -8 | -5
Six1-Eya2 inh | -2 | -6 | 24 | 2 | 3 | 1
TRPV1 potentiator | ? | 4 | 5 | 3 | 11 | -39
CtBP-E1A blk | -8 | -1 | 0 | -2 | 6 | 4

13) C=CCn1c(Cc2cccc3ccccc23)n[nH]c1=S
14) CNc1snc(C)c1C(=O)OCC(=O)N(C)Cc1ccccc1
15) COc1ccccc1NC(=O)CN1CCN(CC(=O)Nc2ccc3c(c2)OCO3)CC1
16) COc1ccc(CCN(C(=O)c2ccc(F)cc2)C2=CC3CCC(C2)N3C)cc1OC (configuration not stated)
17) COc1ccc(-c2noc(CCC(=O)Nc3cccnc3)n2)cc1
18) CCOc1ccc(C(=O)Nc2ccc(CN3CCOCC3)cc2)cc1Br

Screen / compound no. | 13 | 14 | 15 | 16 | 17 | 18
TRPML1 ag | 1.0 | -0.3 | 0.5 | 0.1 | -0.6 | -0.2
TRPML1 inh | -1 | -6 | 6 | 8 | -7 | 5
D2 PAM | -14 | 3 | -6 | -7 | -3 | -32
Six1-Eya2 inh | 3 | -4 | -7 | 5 | 1 | 0
TRPV1 potentiator | 3 | 5 | -4 | 14 | 3 | 9
CtBP-E1A blk | 3 | / | -4 | 0 | / | 0

19) CCN1CCN(CCCNC(=O)c2cc3sccc3n2CC)CC1
20) CCOP(=O)(OCC)c1nc(-c2ccc(OC)cc2)oc1N1CCOCC1
21) CC(C)CC(C)N1CCC(n2nccc2NC(=O)CCc2ccccc2)CC1 (configuration not stated)
22) CC12CC3(C)CC(C)(C1)CC(C(=O)NCc1ccccn1)(C2)C3
23) Cc1onc(-c2ccccc2)c1C(=O)Nc1nnc(CC(C)C)s1
24) CC(=O)NC1(C)CCC2CC1C(C)=NC2(C)C (configuration not stated)

Screen / compound no. | 19 | 20 | 21 | 22 | 23 | 24
TRPML1 ag | 0.4 | -0.1 | 0.0 | -0.3 | -0.5 | -0.2
TRPML1 inh | 6 | 5 | 5 | -9 | -20 | /
D2 PAM | -9 | -9 | -11 | -10 | 2 | 1
Six1-Eya2 inh | 0 | -6 | 10 | 5 | 5 | 1
TRPV1 potentiator | 2 | 8 | -4 | -7 | 1 | /
CtBP-E1A blk | -11 | 2 | / | 6 | 4 | 13

25) COc1ccc(NC(=O)[C@@H]2[C@@H]3C(=O)N(C4CCCCC4)C(=O)[C@@H]3C3c4ccccc4C=CN32)cc1 (some centres not stated)
26) O=C(O)CCn1cnc2ccccc2c1=O
27) CCOc1ccc2nc(COC(=O)c3cccs3)c(C(=O)c3ccccc3)[n+]([O-])c2c1
28) CC1=NN(c2ccccc2)C(=O)/C1=C\N(O)c1ccccc1
29) COc1ccc(/C=N/NC(=O)c2cc(OC)c(OC)c(OC)c2)cc1CN1CCc2cc(OC)c(OC)cc2C1C (configuration not stated)
30) CSC(=NNC(=O)c1ccc(O)cc1)SC

Screen / compound no. | 25 | 26 | 27 | 28 | 29 | 30
TRPML1 ag | -0.4 | 0.3 | 0.2 | -0.3 | -0.4 | -0.1
TRPML1 inh | -3 | 21 | -1 | -8 | -8 | -5
D2 PAM | -10 | -7 | -5 | -42 | -10 | -14
Six1-Eya2 inh | 6 | 2 | 9 | -1 | 19 | 9
TRPV1 potentiator | -12 | 12 | -11 | -2 | 28 | -6
CtBP-E1A blk | -4 | 12 | -1 | / | 23 | -1

Three of these compounds, reformatted:
(5) CN(c1ccc(O)cc1)c1nc(-c2cccnc2)cs1
  TRPML1 ag: -0.3 | TRPML1 inh: -3 | D2 PAM: -5 | Six1-Eya2 inh: -12 | TRPV1 potentiator: 3 | CtBP-E1A blk: -18
(6) Cc1ccc2c(CC(=O)NCC(=O)Nc3c(C)cccc3C)coc2c1
  TRPML1 ag: 0.0 | TRPML1 inh: 22 | D2 PAM: 6 | Six1-Eya2 inh: 2 | TRPV1 potentiator: 16 | CtBP-E1A blk: -18
(7) CCCC(CCC(=O)OC)(C(=O)OCC)c1csc(N)n1 (configuration not stated)
  TRPML1 ag: -0.3 | TRPML1 inh: -13 | D2 PAM: -11 | Six1-Eya2 inh: -2 | TRPV1 potentiator: ? | CtBP-E1A blk: -8

(more compounds)
31) CN1CCN(CCC(=O)N/N=C/c2cc3c(cc2[N+](=O)[O-])OCO3)CC1
32) CNC(=O)c1cccn1-c1ccsc1C(=O)OC
33) CCn1c(CNC(=O)c2ccccc2Br)nnc1SCC(=O)Nc1nncs1
34) CCSc1nnc(NC(=O)CSc2nncc(=O)n2N)s1
35) CCOC(=O)Cn1ccc(NC(=O)c2ccc(F)cc2)n1
36) CCOC(=O)C1=CC[C@@H](c2ccccc2)N(S(=O)(=O)c2ccc(C)cc2)[C@H]1c1cccc(OC)c1

Screen / compound no. | 31 | 32 | 33 | 34 | 35 | 36
TRPML1 ag | 0.5 | -0.2 | -1.1 | -0.2 | / | 0.2
TRPML1 inh | -1 | 0 | 18 | 7 | / | 70
D2 PAM | -7 | 3 | -7 | -1 | 8 | -2
Six1-Eya2 inh | 1 | 3 | -2 | -22 | 4 | 1
TRPV1 potentiator | 2 | 3 | -1 | -5 | 4 | /
CtBP-E1A blk | 5 | 11 | -15 | ? | 0 | -9

37) Cc1cc2c(cc1S(=O)(=O)N(C)Cc1ccccc1)n(C)c(=O)c(=O)n2C
38) CCCn1cc(SCC(N)=O)c2ccccc21
39) O=C(COC(=O)CNC(=O)c1ccc(-c2ccccc2)cc1)NCc1ccco1
40) Cc1ccc(NC(=O)O/N=C/c2c(C)nn(C(C)(C)C)c2C)cc1Cl
41) O=C(c1ccc(Cl)c(S(=O)(=O)N2CCOCC2)c1)N(Cc1ccco1)Cc1cccs1
42) CC1(C(=O)CSc2nc3ccccc3[nH]2)CCC(=O)O1 (configuration not stated)

Screen / compound no. | 37 | 38 | 39 | 40 | 41 | 42
TRPML1 ag | 0.5 | -0.4 | -1.1 | -0.6 | 0.9 | 0.9
TRPML1 inh | -3 | -9 | 10 | -6 | 23 | -22
D2 PAM | 3 | -3 | -11 | -4 | -4 | -4
Six1-Eya2 inh | -6 | 1 | -10 | 3 | -7 | 5
TRPV1 potentiator | -32 | 0 | 1 | -14 | -8 | -7
CtBP-E1A blk | -1 | 1 | 5 | 5 | -4 | -4

2 entries from above, reformatted:
# | SMILES | TRPML1 ag | TRPML1 inh | D2 PAM | Six1-Eya2 inh | TRPV1 potentiator | CtBP-E1A blk
39 | O=C(COC(=O)CNC(=O)c1ccc(-c2ccccc2)cc1)NCc1ccco1 | -1.1 | 10 | -11 | -10 | 1 | 5
40 | Cc1ccc(NC(=O)O/N=C/c2c(C)nn(C(C)(C)C)c2C)cc1Cl | -0.6 | -6 | -4 | 3 | -14 | 5

The list continues.
43) COc1cccc2c1cc1c(=O)n(CC(=O)N3CCCC3)nc(C)n12
44) COc1ccc(CN=Cc2c(C(=O)O)[nH]c3ccccc23)cc1
45) CN(C)C(=O)c1nc2ccc(Cl)cn2c1CN1CCN(c2ncccn2)CC1
46) COC(=O)N/C(C)=C1/NC(=O)c2ccccc2C(c2ccccc2)N1 (configuration not stated)
47) COc1ccc(NC(=O)CSc2nnc(C3CC3)n2C)cc1
48) CCCC/C=C/C(NC(=O)c1ccc(C(=O)OC)cc1)c1ccccc1 (configuration not stated)

Screen / compound no. | 43 | 44 | 45 | 46 | 47 | 48
TRPML1 ag | 0.0 | -0.7 | 0.4 | -0.5 | -0.2 | 0.0
TRPML1 inh | -13 | 19 | -15 | -13 | -6 | 28
D2 PAM | -8 | -6 | -11 | -5 | -13 | -1
Six1-Eya2 inh | 15 | 0 | 0 | 21 | -1 | 9
TRPV1 potentiator | / | 1 | 3 | -4 | 2 | /
CtBP-E1A blk | 0 | 4 | / | 6 | -18 | /
